UCH37 DUB inh – human UCH37 deubiquitinating enzyme inhibition. Q9Y5K5. purified proteasome/UCH37, Ub-AMC cleavage fluorescence. inhibition, % (concentration not given with the values). hit rate 0.33% among 330,000. AID 588478;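 active = mean of two replicates above 20%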;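 note: 0% = compound-free wells with enzyme and 100% = wells lacking proteasome; stock transfer was 100 nL into about 20 µL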
Target sequence (Q9Y5K5 whole entry, looked up): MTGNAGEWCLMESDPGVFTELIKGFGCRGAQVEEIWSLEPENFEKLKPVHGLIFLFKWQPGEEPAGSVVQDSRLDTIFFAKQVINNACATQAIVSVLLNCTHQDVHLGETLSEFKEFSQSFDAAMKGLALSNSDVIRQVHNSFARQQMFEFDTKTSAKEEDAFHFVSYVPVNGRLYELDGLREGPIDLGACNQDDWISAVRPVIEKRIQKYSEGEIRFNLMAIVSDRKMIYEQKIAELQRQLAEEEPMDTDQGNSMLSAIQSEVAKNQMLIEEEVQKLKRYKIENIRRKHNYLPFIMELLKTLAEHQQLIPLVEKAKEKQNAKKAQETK
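Material: Human UCH37 enzyme supplied as purified proteasome complex | Schedule: 30 min preincubation with enzyme, 25 min cleavage at room temperature | Detection: AMC fluorescence 355/460 nm | Measure: % inhibition of Ub-AMC cleavage fluorescence | Controls: Wells without proteasome as full block, compound-free enzyme plus substrate as uninhibited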
Ecoli growth – E. coli growth inhibition; Escherichia coli growth, OD600, 23 h; active compounds read low; OD600 absorbance (concentration not given with the values); hit rate 0.21% among 330,000;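 active = OD600 absorbance below the run mean of sample wells minus 3.6 SD, in any replicate, cut at about 0.56 in these data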;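 note: stock transfer was 300 nL into about 60 µL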
rRNA inh HTS – inhibits bacterial ribosomal RNA function over humanized ribosomes; E. coli WT GFP vs humanized-ribosome RFP mutants, fluorescence, 24 h; active compounds read low; DMSO median 0, no signal -100; GFP signal change (wild-type ribosome), % (no concentration beside the values); hit rate 1.6% among 350,000; AID 720706;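 active = significant combined selectivity score with lowered wild-type GFP, culture density cut under 30%, mutant RFP and density less affected; inactive = any of these conditions unmet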; note: one replicate is shown; some compounds called inactive have numbers as strong as hits
Beta apoptosis – beta cell apoptosis inhibition | INS-1E cytokine-induced death, ATP luminescence, 48 h; percent of positive-control rescue, neutral wells zero | hit rate 0.8% among 300,000 | protection from apoptosis, % (test concentration not listed);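 active = all replicates at 75% or more, or half of them and the mean; inconclusive = half reach 75% but not the mean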;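 note: 0% = cytokine-treated negative control wells and 100% = positive control rescue; higher means more ATP so stronger rescue from cytokine killing; wells of about 40 µL received 100 nL stock; the first replicate is given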
FGF22 binding – FGF22 (human) thermal shift binding; Q9HCT0; hit rate 1.5% among 340,000; recombinant FGF22 thermal shift, SYPRO orange fluorescence; percent of sucrose octasulfate shift, DMSO zero; calls only at 9.99 µM;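 active = melting point raised past a set limit in the mean and every replicate; inconclusive = no clear call; three in four hits are not shown here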
A1 inh – inhibitors of the anti-apoptotic protein A1, read as caspase activation | hit rate 0.066% among 330,000 | caspase activation, % (test concentration not listed) | MEF A1-2A-BIM cells, Caspase-Glo 3/7 luminescence, 3 h; percent of clofoctol response, vehicle zero | AID 2462;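 active = over half of replicate activation scores above 10%, or exactly half above 10 with the replicate mean above 10; inconclusive = replicate mean below 10 yet half the replicates above 10; inactive = over half of replicates below 10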;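 note: wells of about 30 µL received 50 nL stock; many hits fall short of the cut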
T cruzi repl – blocks replication of Trypanosoma cruzi | inhibition, % (no concentration beside the values) | T. cruzi beta-gal in NIH3T3, luminescence, 90 h | AID 1885 | hit rate 1.4% among 300,000;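 active = mean inhibition across valid replicates above about 55%, limit read from the data; inconclusive = mean below that limit but half or more replicates reach it; inactive = mean below it, under half of replicates reach it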;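 note: signal also drops with host cell toxicity which is not excluded here; 0% = plate median of DMSO wells and 100% = zero luminescence signal; higher percent means less beta-gal luminescence so fewer parasites; stock transfer was 50 nL into about 50 µL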
MLL AF4-AF9 inh – inhibitors of human MLL-AF4/AF9 interaction | AlphaScreen, biotin-AF4 peptide binding to FLAG-AF9 | hit rate 0.47% among 350,000 | AID 651704 | inhibition, % at 10 µM;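 active = every replicate reaching a set inhibition limit, whatever the replicate mean, cut at about 25% in these data; inconclusive = mean inhibition reaches that limit but some replicates miss it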;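 note: 0% = plate neutral control median and 100% = total signal loss; the record names both 10 and 1 µM as test concentration; the first replicate is given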
Target sequence (P42568 whole entry, looked up): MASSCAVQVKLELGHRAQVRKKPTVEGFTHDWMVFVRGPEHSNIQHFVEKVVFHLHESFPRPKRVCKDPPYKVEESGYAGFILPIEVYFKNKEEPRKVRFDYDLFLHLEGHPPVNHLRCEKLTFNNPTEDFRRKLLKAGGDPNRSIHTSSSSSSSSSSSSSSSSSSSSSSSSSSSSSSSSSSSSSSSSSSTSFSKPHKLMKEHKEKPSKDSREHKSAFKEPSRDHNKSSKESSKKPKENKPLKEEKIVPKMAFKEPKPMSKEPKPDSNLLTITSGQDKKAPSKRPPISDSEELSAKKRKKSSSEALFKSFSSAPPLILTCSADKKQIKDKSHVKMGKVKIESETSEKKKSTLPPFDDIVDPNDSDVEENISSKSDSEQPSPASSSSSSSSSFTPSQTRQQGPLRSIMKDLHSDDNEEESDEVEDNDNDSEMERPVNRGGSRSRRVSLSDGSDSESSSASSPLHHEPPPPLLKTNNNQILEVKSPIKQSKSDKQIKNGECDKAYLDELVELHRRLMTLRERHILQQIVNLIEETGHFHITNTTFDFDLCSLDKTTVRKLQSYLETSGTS
rRNA inh HTS OD600 – recorded beside rRNA inh HTS, whose call it bears; OD600 change, %; measured here: OD600 growth;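 optical density of the mix in the first replicate; 0 = DMSO median and -100 = no signal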
rRNA inh HTS RFP – also measured in rRNA inh HTS; calls as there; RFP signal change, %; measured here: RFP humanized mutant strains;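 first replicate; 0 = DMSO median and -100 = no signal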
Starred values were filed as active, the others as inactive; i = inactive; ? = inconclusive; . = not tested or not shown; & = joins results of further samples.

mol,UCH37 DUB inh,Ecoli growth,rRNA inh HTS,rRNA inh HTS OD600,rRNA inh HTS RFP,Beta apoptosis,FGF22 binding,A1 inh,T cruzi repl,MLL AF4-AF9 inh
CCn1c(O)c(C=C2N=c3ccccc3=N2)sc1=S,.,.,18,7,4.8,-4,i,0.3,-10,-0.6
O=C(c1cc(C2CC2)nn1-c1ccccc1)N1CCN(Cc2ccccc2F)CC1,-1.7,0.67,-13,-15,0.2,.,i,.,.,1.4
CC1CCN(C2=NC(=O)/C(=C/c3cccc(O)c3)S2)CC1,6.3,0.65,0,-17,6.0,-2,i,0.7,-13,-1.6
COc1ccc(-c2nnc(NC(=O)c3ccc(S(=O)(=O)N(C)CC4CCCO4)cc3)o2)c(OC)c1 (stereo not given),5.2,0.7,4,1,-2.4,2,i,-0.4,5,1.1
CCCC1C(c2ccco2)NC(c2ccco2)CC1(C)O (stereo not given),-1.4,0.74,.,.,.,-1,.,0.5,8,.
CCCCC(CC)COC1(c2ccccc2)OC(=O)c2ccccc21 (stereo not given),3.3,0.72,.,.,.,12,.,-0.3,10,.
COc1cc(/C(C)=N/NC(=O)c2cccc(S(=O)(=O)N3CCCC3)c2)cc(OC)c1OC,.,.,0,5,-1.8,0,i,0.3,-4,-20
Cc1onc(-c2ccccc2Cl)c1C(=O)Nc1nc2ccc(S(C)(=O)=O)cc2s1,4.6,0.73,.,.,.,8,.,1.0,-33,.
O=C(N/N=C/c1ccc(F)cc1)c1ccc(OCc2ccccc2)cc1,.,.,-2,9,-2.6,-9,i,-0.2,-11,3.8
Cc1ccccc1-n1c(SCC(=O)NCC2CCCO2)nc2c([nH]c3ccccc32)c1=O (stereo not given),-2.5,0.7,-7,-4,0.4,-3,i,0.2,0,-5.1
Cc1cc(C)cc(NC(=O)CN2C(=O)c3ccccc3C2=O)c1,3.5,0.64,9,8,1.7,.,i,0.6,-7,-3.8
O=C1CCCC2=C1C(c1ccc(Br)cc1)c1c([nH]c(=S)[nH]c1=O)N2 (stereo not given),1.8,0.68,.,.,.,-1,.,-0.3,27,.

Next part.
mol,UCH37 DUB inh,Ecoli growth,rRNA inh HTS,rRNA inh HTS OD600,rRNA inh HTS RFP,Beta apoptosis,FGF22 binding,A1 inh,T cruzi repl,MLL AF4-AF9 inh
O=C(Nc1ccc(C(=O)N2CCCc3ccccc32)cc1)c1cccs1,0.4,0.65,-40,-61,-5.8,6,i,-0.2,7,3.0
CC(=O)Nc1ccc(S(=O)(=O)NCCc2ccccn2)cc1,5.6,0.71,4,9,-1.8,-6,i,?,-18,-4.4
CN(C)c1ccc(P(=O)(OC2CCCCC2)C(O)c2ccccn2)cc1 (stereo not given),-0.6,0.66,-2,-6,-2.5,-2,i,1.7,-4,-1.7
Cc1cc(C(=O)Nc2ccc(F)cc2C)cs1,6.0,0.71,18,16,5.4,5,i,-3.8,-8,0.4
COc1ccc([N+](=O)[O-])c(OC)c1C(=O)NC(=O)Nc1nc(C)nc(C)n1,9.2,0.69,-4,5,-0.6,-2,i,0.6,-15,0.0
O=C(c1ccc2ccccc2n1)N1CCN(c2ccccc2)CC1,0.1,0.67,-12,-7,1.3,6,i,0.3,1,-51
CCOc1ccccc1CNC(c1ccccc1)c1ccccc1,2.1,0.63,-25,-33,0.6,0,i,-0.2,40,-6.0
COc1ccc2[nH]c(=O)c(CNc3cc(C)ccc3C)cc2c1,2.3,0.65,0,4,-9.3,-5,i,-0.3,-12,3.2
CC1(c2ccc(OC(F)F)cc2)NC(=O)N(CC(=O)Nc2ccc3c(c2)OCO3)C1=O (stereo not given),4.3,0.71,.,.,.,18,.,0.3,0,.
COc1ccc(C=C(C#N)c2ccc(OC)cc2)cc1,-7.8,0.64,-17,-32,-3.6,.,i,.,.,20
Cc1cc(OCC(=O)NC(C)C)cc(C)c1Br,4.6,0.71,-10,-14,-7.4,1,i,0.1,2,-4.5
Cc1cc(NC(=O)COn2nnc3ccccc32)no1,2.0,0.73,.,.,.,.,.,-0.2,-11,.

Additional structures follow:
mol,UCH37 DUB inh,Ecoli growth,rRNA inh HTS,rRNA inh HTS OD600,rRNA inh HTS RFP,Beta apoptosis,FGF22 binding,A1 inh,T cruzi repl,MLL AF4-AF9 inh
COc1ccc(C(=O)Nc2nncs2)c(OC)c1,0.6,0.69,3,6,2.6,0,i,-0.6,-4,0.9
Cn1c(CNC(=O)c2ccccc2F)nnc1SCc1nc2ccccc2c(=O)[nH]1,.,.,24,18,3.6,-2,.,-0.2,-16,-2.2
Cn1c(=O)[nH]c2ncccc21,-4.0,0.69,11,4,-2.2,-15,i,0.1,3,-0.4
O=C(NCC1(N2CCCCC2)CCCCC1)C1CC(=O)N(c2ccc3c(c2)OCCO3)C1 (stereo not given),-2.4,0.72,10,4,1.7,-1,i,-0.9,6,4.1
Cc1cc(C)c2cc(C(=O)N3CCN(c4ncccc4C(F)(F)F)CC3)[nH]c2c1,1.8,0.61,0,0,-1.7,.,i,0.6,10,-0.7
CCc1ccccc1N(C(=O)Cn1nnc2ccccc21)C(C(=O)NCCOC)c1ccco1 (stereo not given),1.7,0.76,.,.,.,-2,.,-0.4,-2,.
CC(c1ccccc1)N1CC(C(=O)Nc2ccc(F)cc2)CC1=O (stereo not given),2.6,0.72,3,9,-0.1,4,i,-0.5,.,-1.6
OCCCc1nc2ccccc2n1Cc1ccccc1,3.8,0.65,-10,-14,0.1,-1,i,-0.2,-6,1.7
CCCCCc1nc2sc3c(c2c(=O)n1N)CCC3,1.3,0.66,.,.,.,-1,.,0.3,1,.
CC(C)NC(=O)c1cc(-c2cccs2)nc2ccccc12,-365,0.64,14,9,-3.5,-1,i,1.0,-3,7.2
CC1CCN(C(=O)CSc2nnc(-c3cccnc3)o2)CC1,1.7,0.69,5,5,-0.3,-1,i,-0.5,2,1.2
Cn1nnnc1SCC(=O)NNC(=O)c1ccc(F)cc1,-1.3,0.71,1,7,2.4,-5,.,-0.1,-10,-1.1

(continued)
mol,UCH37 DUB inh,Ecoli growth,rRNA inh HTS,rRNA inh HTS OD600,rRNA inh HTS RFP,Beta apoptosis,FGF22 binding,A1 inh,T cruzi repl,MLL AF4-AF9 inh
Cc1ccc(Cl)cc1NC(=O)COC(=O)C12CC3CC(CC(C3)C1)C2,6.2&0.9,0.72&0.7,.,.,.,-8&-5,.,-0.5&-0.2,-5&22,.
Cc1cc(C(=O)CN2C(=O)CCC2=O)c(C)n1Cc1ccccc1,4.7,0.71,.,.,.,-4,.,-0.5,23,.
O=C1COc2c1ccc(O)c2O,8.5,0.62,10,30,17,.,i,.,.,-3.8
COc1ccccc1-n1ccnc(SCC(=O)NCCc2ccccc2)c1=O,-14,0.67,7,6,3.4,-11,i,-1.0,-7,-1.5
CN(Cc1ccccc1)C(=O)c1[nH]cnc1C(=O)Nc1nccs1,0.1,0.71,12,19,0.0,-2,i,-0.5,.,-2.9
CCCc1[nH]n(-c2nc3ccccc3s2)c(=O)c1C=NCC1CCCO1 (stereo not given),6.4,0.66,-25*,-8.9*,2.7*,5,.,-1.6,14,.
Cc1ccc(NC(=O)/C=C\C(=O)NCC(=O)O)cc1,0.0,0.69,8,19,5.0,2,i,1.1,-6,-1.4
CCc1cc(C(=O)N2CCCC(CNC(=O)c3ccc(-c4ccccc4)cc3)C2)no1 (stereo not given),1.9,0.7,-21,-18,-0.8,-2,.,-0.7,33,-1.0
COCCN(CC(=O)Nc1cc(Cl)ccc1-n1cncn1)Cc1nc2ccccc2c(=O)[nH]1,0.8,0.71,4,-1,-0.6,0,i,1.7,.,-1.0
CC(=O)c1cccc(OCc2cc(C(=O)NCc3nc(C)c(C)s3)no2)c1,0.0,0.7,2,-8,0.6,-7,i,-1.4,1,-0.8
O=C(/C=C/c1ccccc1)CC(O)(c1ccccc1)C(F)(F)C(F)F (stereo not given),1.9,0.64,-32*,-23*,-9.9*,.,.,0.6,0,8.8
O=C1/C(=C/c2ccco2)CCC1C1CCCC1 (stereo not given),3.7,0.65,14,4,1.7,-9,i,-4.8,-9,?

Among those listed so far, three contain a furan ring, fused or not:
mol,UCH37 DUB inh,Ecoli growth,rRNA inh HTS,rRNA inh HTS OD600,rRNA inh HTS RFP,Beta apoptosis,FGF22 binding,A1 inh,T cruzi repl,MLL AF4-AF9 inh
CCCC1C(c2ccco2)NC(c2ccco2)CC1(C)O (stereo not given),-1.4,0.74,.,.,.,-1,.,0.5,8,.
CCc1ccccc1N(C(=O)Cn1nnc2ccccc21)C(C(=O)NCCOC)c1ccco1 (stereo not given),1.7,0.76,.,.,.,-2,.,-0.4,-2,.
O=C1/C(=C/c2ccco2)CCC1C1CCCC1 (stereo not given),3.7,0.65,14,4,1.7,-9,i,-4.8,-9,?

Remaining list, next part
mol,UCH37 DUB inh,Ecoli growth,rRNA inh HTS,rRNA inh HTS OD600,rRNA inh HTS RFP,Beta apoptosis,FGF22 binding,A1 inh,T cruzi repl,MLL AF4-AF9 inh
COc1cc2cc(C(=O)N3CCC(Cc4ccccc4)CC3)[nH]c2cc1OC,-2.1,0.68,3,13,3.0,-11,i,-1.3,9,-0.8
Cc1sc2nc(COC(=O)c3c(F)cccc3F)[nH]c(=O)c2c1C,3.2,0.71,8,7,-7.9,0,i,-0.4,-9,-2.1
O=C1c2cccc3cccc(c23)C(=O)N1OS(=O)(=O)c1ccc(Cl)cc1,-99,0.68,13,11,2.3,-5,i,0.8,-24,-1.2
Cc1noc(C)c1C(=O)Nc1ccccc1N1CCCC1,-0.1,0.66,3,0,2.1,1,i,0.4,.,0.1
NS(=O)(=O)c1cc2c(cc1Cl)NC(C(Cl)Cl)NS2(=O)=O (stereo not given),1.3,0.64,-27,-55,21,-6,i,-0.1,-1,-1.2

Source: PubChem BioAssay

A portion of the library, so the mix of outcomes need not match the whole.
